# MT1-MMP act inh = blocks activation of human MT1-MMP; P50281; actives 0.061% (n = 360,000); AID 651647; HT1080 RFP-PRO-GFP cells, GFP/RFP ratio fluorescence, overnight; percent of plate control window, DMSO zero; GFP/RFP ratio change, % at 20 µM;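 active = GFP/RFP ratio change of at least 30% with cell ATP level not reduced by more than half and red fluorescence within 50% of control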; also: strong numbers were not always called active
#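 system = RFP-PRO-GFP reporter HT1080 cells | dosing = 20 µM single dose, 1% DMSO | timing = overnight cell settling, then overnight compound exposure, 37 °C, 5% CO2 | read-out basis = GFP/RFP fluorescence ratio | controls = DMSO and RFP-L50D-GFP cell wells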
# UUG fidelity = modulators of start codon recognition fidelity in yeast; activity score, % at 18.7 µM; S. cerevisiae UUG-firefly luciferase reporter, luminescence/redox ratio; actives 0.13% (n = 350,000);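 active = replicate mean at a twofold rise or more, about +100% in these data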;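 also: firefly luciferase made from a UUG start codon reports start codon fidelity; reporter light over untreated wells divided by growth signal over untreated wells; some hits fall short of that in this replicate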
# CSC inhib = blocks cancer stem cells; cancer stem cell-like cells viability, luminescence; inhibition, % at 7.5 µM; actives 1.1% (n = 300,000); AID 2717;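 active = mean at 75% or more and at least half the replicates too; inconclusive = mean and replicates disagree; tested in HMLE shEcad cells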;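 also: 0% = median of negative and 100% = median of positive control wells; the first replicate is given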
# PABP FP inh = blocks human PABP binding to poly(A) RNA; P11940; fluorescence polarization; inhibition, % at 35 µM; actives 1% (n = 290,000); AID 2014;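 active = 50% or more with normal probe brightness, or confirmed in later tests; inconclusive = above 50% with abnormal brightness, or retests that disagree; inactive = below 50% or failed in later tests; about a fifth of its hits are not listed in these tables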;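 also: calls also rest on retests at 20 µM and on dose response follow-up; controls were probe without protein and protein plus probe with vehicle; some compounds called inactive have numbers as strong as hits; many hits fall short of the cut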
# Target sequence (P11940 whole entry, looked up): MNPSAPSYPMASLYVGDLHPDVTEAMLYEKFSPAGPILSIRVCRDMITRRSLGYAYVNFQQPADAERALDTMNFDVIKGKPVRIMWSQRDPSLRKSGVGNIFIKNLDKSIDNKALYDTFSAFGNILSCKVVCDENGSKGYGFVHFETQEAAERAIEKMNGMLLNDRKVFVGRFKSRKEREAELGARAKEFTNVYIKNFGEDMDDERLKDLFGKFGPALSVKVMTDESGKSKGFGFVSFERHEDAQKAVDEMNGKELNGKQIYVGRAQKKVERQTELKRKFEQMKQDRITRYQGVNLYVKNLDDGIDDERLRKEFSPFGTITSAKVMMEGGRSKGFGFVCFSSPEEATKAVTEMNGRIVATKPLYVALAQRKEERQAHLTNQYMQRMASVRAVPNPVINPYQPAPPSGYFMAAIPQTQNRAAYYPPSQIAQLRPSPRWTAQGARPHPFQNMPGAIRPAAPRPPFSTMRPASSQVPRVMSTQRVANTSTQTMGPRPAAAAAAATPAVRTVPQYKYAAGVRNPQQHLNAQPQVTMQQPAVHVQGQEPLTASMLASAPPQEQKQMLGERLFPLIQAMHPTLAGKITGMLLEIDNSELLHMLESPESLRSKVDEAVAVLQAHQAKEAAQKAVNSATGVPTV
# Env fusion inh = inhibitors of HIV Env-mediated cell fusion; HeLa-JRFL Env/CEM21 cell fusion, luciferase; inhibition, % at 12.3 µM; actives 1.1% (n = 360,000);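 active = mean replicate inhibition score of at least 50 and every replicate individually at or above 50; inconclusive = only one of the two criteria met; inactive = mean below 50 and not all replicates reaching 50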;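 also: 0% = plate neutral controls and 100% = maraviroc near 300 nM; one replicate is shown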
# Rce1 inh = yeast Ras-converting enzyme inhibition; Q03530; yeast membranes, quenched prenylated peptide cleavage fluorescence; calls only; actives 0.27% (n = 290,000); AID 2563;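 active = fall in fluorescence gain of 50% or more versus controls, with final raw signal at or below 3038400; inconclusive = same 50% fall but final raw signal above 3038400; inactive = fall in fluorescence gain under 50%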;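 also: plate controls were neutral control wells for no effect and wells lacking membranes for full effect; tested at 10 µM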
# Target sequence (Q03530 whole entry, looked up): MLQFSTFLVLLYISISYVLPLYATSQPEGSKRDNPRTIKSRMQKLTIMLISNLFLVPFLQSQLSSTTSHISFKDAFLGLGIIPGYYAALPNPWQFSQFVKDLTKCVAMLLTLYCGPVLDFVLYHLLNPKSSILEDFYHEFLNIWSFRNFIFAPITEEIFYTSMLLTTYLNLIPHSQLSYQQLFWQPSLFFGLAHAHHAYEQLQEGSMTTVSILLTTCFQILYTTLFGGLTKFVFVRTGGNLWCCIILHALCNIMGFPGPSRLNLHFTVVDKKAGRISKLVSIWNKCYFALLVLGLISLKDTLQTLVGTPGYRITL
# eIF4H inh = inhibitors of RNA binding by human eIF4H; Q15056; eIF4H fluorescence polarization binding assay; inhibition, % at 35 µM; actives 0.94% (n = 290,000);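 active = 50% or more with normal probe brightness, or confirmed in later tests; inconclusive = above 50% with abnormal brightness, or retests that disagree; inactive = below 50% or failed in later tests; about a fifth of its hits are not listed in these tables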;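 also: calls also rest on retests at 20 µM and on dose response follow-up; 0% = protein and probe with vehicle and 100% = probe without protein; strong numbers were not always called active; many hits fall short of the cut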
# eIF4H inh retest = second read-out of eIF4H inh, no call of its own (marks repeat the call); inhibition, %; compound at 20 µM; confirmation average;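 mean of two retest wells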
# PABP FP inh retest = recorded beside PABP FP inh, whose call it bears; inhibition, %; compound at 20 µM; confirmation repeats;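 mean of two retest wells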
# MT1-MMP act inh RFP = further read-out of MT1-MMP act inh, marked with its call; RFP signal change, %; measured here: RFP expression control read;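 0 = vehicle wells; hits needed this value within 50% of zero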
# * marks the source's active call; other numbers are inactive results; i = inactive; ? = inconclusive; . = not tested or not shown. Not all compounds are listed. The share of hits here may be higher or lower than overall.
SMILES,MT1-MMP act inh,MT1-MMP act inh RFP,UUG fidelity,CSC inhib,PABP FP inh,Env fusion inh,Rce1 inh,eIF4H inh,others
CSC[C@H]1CN(c2ccccc2)C(=O)[C@@H]1CC(=O)Nc1ccc(Br)cc1,6,4,-12,.,.,-14,.,.,
COc1cccc(/C(O)=C2/C(=O)C(=O)N(CCN(C)C)C2c2ccccn2)c1 (stereo not drawn),-7,1,-12,-2,7,.,i,9,
COc1cc(OC)cc(C(=O)NNC(=O)Cc2cccs2)c1,-7,4,-18,-7,.,.,.,.,
COC(=O)[C@H](Cc1ccc(O)cc1)NC(=O)Cn1ccc(NC(=O)OCc2ccccc2)nc1=O,1,4,-4,-11,.,-16,.,.,
CC(=O)c1ccc(Sc2ccccc2N)c([N+](=O)[O-])c1,-4,-4,1,32,-2,-10,i,3,
OC(CN1CCc2ccccc2C1)c1ccccc1 (stereo not drawn),-2,-1,.,1,11,4,i,-11,
CC(C)(C)OC(=O)CNC(=O)c1nc[nH]c1C(=O)N1CCNCC1,3,4,-13,-2,.,1,i,.,
Cc1sc2nc(CN3CCOCC3)[nH]c(=S)c2c1C,10,2,.,-4,-3,-11,i,-6,
O=C(Nc1nccs1)C(=O)c1c[nH]c2ccccc12,-5,-5,-18,-6,7,-165,i,9,
N#Cc1cc2c(=O)n3ccccc3nc2n(Cc2ccco2)c1=NC(=O)c1ccco1,-9,-2,.,13,8,.,i,?,
COCCNC(=O)C1(C)CCCN(Cc2cc(C)ccc2C)C1 (stereo not drawn),2,4,-2,.,.,5,.,.,
Cc1oc(C(C)(C)C)cc1C(=O)N1CCN(c2ncccc2C(F)(F)F)CC1,-6,-3,.,-3,2,8,i,-7,
CC1CCN(C(=O)c2ccc(S(=O)(=O)N3CCCC3)cc2)CC1,-2,-1,2,1,.,-14,.,.,
CCCCC(Br)C(=O)Nc1ccc(S(=O)(=O)Nc2cc(C)nc(C)n2)cc1 (stereo not drawn),-7,-3,-10,-13,6,5,i,-1,
Cc1ccccc1-c1nc2cc(Cl)ccc2c(=O)o1,-1,0,.,10,6,11,i,5,
CCOc1c(Br)cc(C2CC(=O)Nc3cc(OC)c(OC)cc32)cc1OC (stereo not drawn),3,-1,1,-1,16,-5,i,3,
Cc1c(C(=O)O)oc2ccc(S(=O)(=O)N3CC(C)CC(C)C3)cc12 (stereo not drawn),-2,1,9,-4,-7,.,i,1,
COc1cc(CCC(=O)Nc2ccc(S(=O)(=O)N3CCCC3)cc2)cc(OC)c1OC,8,1,8,.,.,0,.,.,
COCC1CCN(C(=O)c2ccc3oc(CCCc4ccccc4)nc3c2)C1 (stereo not drawn),0,1,7,4,-16,-11,i,-7,
CCCCn1c(N)c(N(CCOC)C(=O)CCC2CCCCC2)c(=O)[nH]c1=O,-3,2,-6,-6,.,.,.,.,
CN(C(=O)C(C)(C)C)[C@H]1C[C@H]2c3[nH]c4ccccc4c3CCN2C(=O)[C@H]1CO,-7,-2,7,.,.,-68,.,.,
Cc1cc(=O)n2nc(N3CCCC(C(=O)NCc4ccccc4C)C3)sc2n1 (stereo not drawn),-1,3,-9,5,-2,.,i,-4,
C[C@H](NC(=O)Cc1cccc2ccccc12)C(=O)N1CCOCC1,1,6,-7,-21,.,7,.,.,
COCCN1CCCC(CNCc2cn(C)nc2-c2ccc(Oc3ccccc3)cc2)C1 (stereo not drawn),8,0,.,3,18,18,i,35,

# Gathered by group, the compounds so far containing a thiophene ring, fused or not (two)
SMILES,MT1-MMP act inh,MT1-MMP act inh RFP,UUG fidelity,CSC inhib,PABP FP inh,Env fusion inh,Rce1 inh,eIF4H inh,others
COc1cc(OC)cc(C(=O)NNC(=O)Cc2cccs2)c1,-7,4,-18,-7,.,.,.,.,
Cc1sc2nc(CN3CCOCC3)[nH]c(=S)c2c1C,10,2,.,-4,-3,-11,i,-6,

# A draw from above in order of count of non-hydrogen atoms, high to low:
SMILES,MT1-MMP act inh,MT1-MMP act inh RFP,UUG fidelity,CSC inhib,PABP FP inh,Env fusion inh,Rce1 inh,eIF4H inh,others
COCCN1CCCC(CNCc2cn(C)nc2-c2ccc(Oc3ccccc3)cc2)C1 (stereo not drawn),8,0,.,3,18,18,i,35,
COc1cc(CCC(=O)Nc2ccc(S(=O)(=O)N3CCCC3)cc2)cc(OC)c1OC,8,1,8,.,.,0,.,.,
CN(C(=O)C(C)(C)C)[C@H]1C[C@H]2c3[nH]c4ccccc4c3CCN2C(=O)[C@H]1CO,-7,-2,7,.,.,-68,.,.,
Cc1c(C(=O)O)oc2ccc(S(=O)(=O)N3CC(C)CC(C)C3)cc12 (stereo not drawn),-2,1,9,-4,-7,.,i,1,
CC1CCN(C(=O)c2ccc(S(=O)(=O)N3CCCC3)cc2)CC1,-2,-1,2,1,.,-14,.,.,

# New compounds follow
SMILES,MT1-MMP act inh,MT1-MMP act inh RFP,UUG fidelity,CSC inhib,PABP FP inh,Env fusion inh,Rce1 inh,eIF4H inh,others
COc1ccc(NC(=O)c2ccccc2N(Cc2ccccc2)S(C)(=O)=O)cc1,0,5,-5,15,-5,10,i,-4,
CN(C)c1nc(NCc2ccccc2)nc(Oc2ccc(=O)[nH]n2)n1,2,5,-2,-13,19,23,i,-16,
O=S(=O)(c1ccc(N2CCN(CCO)CC2)nc1)N1CCCCC1,-2,3,-3,2,0,.,.,10,
CCOc1ccccc1NC(=S)NC(=O)C1CCCCC1,-10,-7,-10,41,7,-18,i,3,
Cc1[nH]c2ccc(-c3nnc(SCC(=O)NCc4ccco4)n3Cc3ccccc3)cc2c1C,0,-5,-18,2,-33,.,i,-13,
O=C(CO/N=C/c1ccc(OC(F)F)cc1)NCc1ccco1,2,0,-14,-3,2,3,i,-3,
CCc1ccc(N(CC(=O)Nc2ccc(NC(C)=O)cc2)S(=O)(=O)c2ccccc2)cc1,7,-3,.,13,7,-18,i,11,
CCCCCCN1C[C@@H](n2cc(-c3ccc(F)cc3)nn2)[C@H](O)C[C@@H]1c1ccc(OC)cc1,0,-7,-3,.,.,26,.,.,
Cn1c(NCCCN2CCOCC2)nc2c1c(=O)n(Cc1ccc(Cl)c(Cl)c1)c(=O)n2C,9,-20,-14,10,-10,14,i,-2,
Cn1c(NCCOc2ccccc2)nc2cc(-c3ccc(F)cc3)sc2c1=O,13,-6,1,.,.,9,.,.,
COc1cc(Cl)ccc1OCc1cc(C(=O)N2CC[C@@H]3CCCC[C@H]3C2)no1,6,2,15,10,-7,-23,i,-16,
CCOC(=O)CN(C(=O)Cn1nnc(-c2ccc(C)cc2)n1)C(CC)C(=O)NC1CCCC1 (stereo not drawn),0,-2,23,-3,0,-7,i,2,
CC(C)(C)c1ccc(S(=O)(=O)NCC(=O)N2CCCC2)cc1,-3,-5,0,.,-1,6,i,-3,
CCCCC(CCC(=O)O)(C(=O)OCC)c1csc(N)n1 (stereo not drawn),5,8,13,-3,2,.,i,2,
O=C(NCC1CCCO1)c1cc(-c2ccncc2)nc2ccc(S(=O)(=O)N3CCOCC3)cc12 (stereo not drawn),2,1,-7,-1,4,.,i,13,
Cc1ccc(S(=O)(=O)NN2C(=O)/C(=C/c3cccnc3)SC2=S)cc1,2,4,-17,3,4,-4,i,6,
O=S(=O)(c1cccc(-c2cn3ccccc3n2)c1)N1CCCCC1,4,-4,-19,-12,11,-4,i,-9,
Cc1ccc(Cn2ccc(NC(=O)c3nn(C)cc3Cl)n2)cc1,2,1,-17,-2,19,.,i,16,
CCOc1ccccc1C1C(C(N)=O)=C(C)Nc2nc(CCCO)nn21 (stereo not drawn),0,-3,-12,-2,-3,3,i,-5,
Cc1cc(C)c(O)c(-c2n[nH]c3c2C(c2cccc(O)c2)N(Cc2ccco2)C3=O)c1 (stereo not drawn),1,-7,-3,?,12,-1,i,-6,
COc1ccc2c(c1)c(/C=N/Nc1nc3ccccc3[nH]1)c(C)n2C,14,-13,-26,45,6,-8,i,16,
C/C(=N\O)C1CC(CC(=O)O)C1(C)C (stereo not drawn),-1,1,-16,5,-2,-12,i,1,
CC1CCC2(CC1)NC(=O)N(CC(=O)c1ccc3c(c1)OCO3)C2=O (stereo not drawn),-1,1,-19,-8,-9,-9,i,-5,
Cc1ccc(-c2nc(CS(=O)CC(=O)NCCCN3CCN(Cc4ccccc4)CC3)c(C)o2)cc1 (stereo not drawn),1,-14,-19,-3,.,5,i,.,
COc1ccc(-c2cncc3nccn23)cc1OC,-2,4,-17,.,.,-2,.,.,
COc1ccc(C2OCC3(O)C(c4ccc(OC)c(OC)c4)OCC23)cc1OC (stereo not drawn),1,1,0,-12,11,.,i,5,
Cc1cc(C)c(C)c(S(=O)(=O)N2CCN(C(=S)NCC3CCCO3)CC2)c1C (stereo not drawn),0,-2,.,-5,-1,-6,i,0,
Cn1cccc1Cc1nnc(SCC(=O)NCc2ccccc2)n1-c1ccc(F)cc1,3,3,-11,0,3,27,i,-1,
COc1cc(/C(=C/c2ccccc2)c2ccccc2)c2c(c1)oc1ccccc12,1,-4,-14,9,-5,27,i,-19,
O=C(Nc1nc2ccccc2s1)C1CCN(C(=O)c2ccco2)CC1,0,-11,-5,-7,5,-2,i,-3,
Cc1nc(-c2ccc3c(c2)OCCO3)cs1,1,1,.,5,3,-44,i,-5,
COc1ccc(NC(=O)c2cc(CC(C)C)on2)cc1OC,1,3,3,23,-11,-19,i,16,
O=C(c1ccco1)N1CCN(c2cccc(Cl)c2)CC1,0,1,3,8,-9,.,i,1,
O=C(c1cccc(Cl)c1)C1CCCN(S(=O)(=O)c2ccccc2)C1 (stereo not drawn),-2,-6,-1,11,-7,-75,i,-14,
CCOC(=O)C1=C(O)/C(=C\c2ccc(CNC(=O)C(=O)Nc3ccccc3)o2)N=C1C,-12,2,-1,-15,?,.,i,?,
CCn1ncc(CN2CCC(n3nccc3NC(=O)c3ccccc3Cl)CC2)c1C,3,5,-2,.,.,0,.,.,
Cc1c(C#N)c2ccccc2n1CC(=O)N1CCCC1,-2,-5,-12,-7,2,3,i,4,
COCCNC(=S)N1CCc2cc(OC)c(OC)cc2C1COc1ccc(C(C)C)cc1 (stereo not drawn),5,-1,-16,11,3,-9,i,3,
COc1cc(C(NC(C)=O)NC(C)=O)ccc1OCc1ccccc1,0,4,.,-5,6,2,i,1,
Cc1cccn2c(=O)c3cc(S(=O)(=O)c4ccccc4)c(=N)n(Cc4ccco4)c3nc12,-5,1,-10,19,70,19,i,86,eIF4H inh retest=-4;PABP FP inh retest=8
O=C(CCC(=O)OCC(=O)c1ccccc1)Nc1cccc(Cl)c1,1,-1,.,-14,33,34,i,-11,

# Screening data: PubChem BioAssay, several laboratories
